High-throughput results from PubChem BioAssay.
EBNA-1 inh – blocks EBNA-1 binding to DNA | EBNA-1 DNA binding, fluorescence polarization | inhibition, % at 14.8 µM | hit rate 0.34% among 300,000; in the data active = inhibition above about 28%
MEP2-GFP yeast – modulators of TOR pathway MEP2-GFP in S. cerevisiae. S. cerevisiae MEP2-GFP strain, flow cytometry GFP, 3 h; 100% = DMSO control level. GFP response vs DMSO, % at 10 µM. hit rate 0.51% among 330,000;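 active = GFP response versus DMSO above a set limit, roughly screen mean plus 3 SD, cut at about 180% in these data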;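 note: median GFP fluorescence of the barcode-gated MEP2-GFP cells per well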
LAP4 TOR yeast – yeast TOR pathway LAP4-GFP modulation; S. cerevisiae LAP4-GFP multiplex, flow cytometry GFP, 3 h; median GFP as percent of DMSO wells; GFP response vs DMSO, % at 10 µM; hit rate 0.34% among 320,000;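 active = GFP response vs DMSO above a set limit, about the screen mean plus 3 SD, cut at about 150% in these data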
AHR act – activates the human aryl hydrocarbon receptor. P35869. AHR-responsive luciferase reporter cells, luminescence. activation, % at 5 µM. hit rate 2.5% among 320,000. AID 2796; in the data active = activation above about 47%;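 note: 0% = vehicle wells and 100% = reference agonist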
Target sequence (P35869 whole entry, looked up): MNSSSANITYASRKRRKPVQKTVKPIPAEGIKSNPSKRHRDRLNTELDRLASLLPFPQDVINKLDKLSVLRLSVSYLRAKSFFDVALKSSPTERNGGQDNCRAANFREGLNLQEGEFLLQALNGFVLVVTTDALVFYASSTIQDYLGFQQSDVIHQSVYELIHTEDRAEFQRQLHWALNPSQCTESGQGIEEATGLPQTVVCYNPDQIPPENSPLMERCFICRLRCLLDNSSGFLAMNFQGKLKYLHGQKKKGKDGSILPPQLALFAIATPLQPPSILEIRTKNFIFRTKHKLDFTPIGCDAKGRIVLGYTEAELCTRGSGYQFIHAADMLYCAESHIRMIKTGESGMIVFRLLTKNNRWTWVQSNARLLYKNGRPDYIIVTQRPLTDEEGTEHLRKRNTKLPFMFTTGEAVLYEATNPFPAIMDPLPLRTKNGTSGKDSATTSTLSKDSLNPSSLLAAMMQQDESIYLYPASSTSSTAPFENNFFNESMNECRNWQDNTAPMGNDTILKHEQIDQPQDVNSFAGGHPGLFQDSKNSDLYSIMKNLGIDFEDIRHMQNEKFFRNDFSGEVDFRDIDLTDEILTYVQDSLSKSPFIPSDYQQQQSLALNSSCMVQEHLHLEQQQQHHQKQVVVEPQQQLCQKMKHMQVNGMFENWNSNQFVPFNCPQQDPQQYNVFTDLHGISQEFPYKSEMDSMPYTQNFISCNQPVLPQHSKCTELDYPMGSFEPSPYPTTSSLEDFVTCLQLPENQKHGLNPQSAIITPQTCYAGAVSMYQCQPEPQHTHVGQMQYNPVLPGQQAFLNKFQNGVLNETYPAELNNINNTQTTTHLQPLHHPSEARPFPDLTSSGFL
procasp7 counter – counter-screen for procaspase-3 activators: activators of human procaspase-7 | activation, % at 8.5 µM | recombinant procaspase-7, Ac-DEVD-pNA absorbance 405 nm; D23A/D198A/D206A triple mutant, cannot self-cleave; scale: DMSO 0, 5 µM enzyme 100 | AID 463210 | hit rate 0.093% among 330,000 | P55210;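 active = percent activation above the screen-wide mean plus 3 SD, cut at about 25% in these data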
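Detection: p-Nitroaniline absorbance at 405 nm, read at 0 and 120 min; system: Uncleavable procaspase-7 mutant enzyme; evaluation: % activation from two-timepoint absorbance difference, scaled to controls; times: 1 h enzyme–compound preincubation and 2 h substrate reaction, both 25 °C; buffer or medium: Zinc-free HEPES pH 7.4 with 300 mM NaCl, 0.01% Triton X-100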
ZTA DNA inh – blocks Epstein-Barr virus ZTA, an EBNA-1 counter-screen. P03206. ZTA-DNA binding, fluorescence polarization. inhibition, % at 11 µM. hit rate 0.15% among 320,000. AID 2234; in the data active = inhibition above about 33%
RPL19A-GFP yeast – alters RPL19A-GFP fluorescence in TOR pathway yeast screen. percent response vs DMSO, % at 10 µM. AID 2025. S. cerevisiae RPL19A-GFP strain, flow cytometry, 3 h; active compounds read low. hit rate 0.3% among 330,000;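 active = percent response vs DMSO below 50%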;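 note: median channel GFP fluorescence of the barcoded RPL19A-GFP strain; ratio of sample median GFP to plate DMSO average so 100% = DMSO; lower means less RPL19A-GFP as with rapamycin TOR inhibition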
Active calls of the source: *; . = not tested or not shown; [ ] = remark or other dose.

SMILES	EBNA-1 inh	MEP2-GFP yeast	LAP4 TOR yeast	AHR act	procasp7 counter	ZTA DNA inh	RPL19A-GFP yeast
Cc1cccc(NC(=O)c2cc3ccccc3c(=O)o2)n1	6	98	100	-2	-3	15	95
COC(=O)CCC(=O)OC1(C)C(=O)C=C2C=C(C3CC3)N(CCN3CCOCC3)C=C2C1=O (stereo unspecified)	9	124[may fluoresce violet]	99[may fluoresce violet]	0	-14	-4	99[may fluoresce violet]
O=S(=O)(Nc1cccc(-c2ccc(N3CCOCC3)nn2)c1)c1cc(Cl)ccc1Cl	-4	99	108	1	7	-4	100
N/C(=N\N=C\c1cccc([N+](=O)[O-])c1)c1nonc1N	-4	98	104	18	0	3	99
Cc1cc(C(=O)COC(=O)c2cccc(O)c2)c(C)n1C1CC1	.	100	102	3	-2	-5	96
O=C(Nc1ccccc1)N1CCc2ccccc21	-5	97	101	25	-1	9	106
Cc1ccc(NC(=O)c2cnc(SCC(=O)NCC3CCCO3)n(C)c2=O)cc1C (stereo unspecified)	-1	95	88	18	8	1	90
CCCN1C(=O)c2ccc(C(=O)Nc3ccc4c(c3)OCO4)cc2C1=O	-4	104	91	22	-1	-19	106
O=[N+]([O-])c1ccccc1N/N=C\c1ccccc1F	2	101	101	9	10	2	100
O=C(CNc1ccccc1OC(F)F)N1CCc2ccccc21	-11	101	108	24	-4	-4	96
Cc1cccc(NC(=O)c2cc(-c3cc(C)ccc3O)n[nH]2)c1	-2	94	87	-3	-5	-3	99
COc1ccc(NC(=O)C(=O)NNC(=O)c2cccs2)cc1	10	102	98	3	-2	2	100
CCOC(=O)C(C)On1c(-c2cccc(Cl)c2)nc2ccc([N+](=O)[O-])cc21 (stereo unspecified)	-3	98	105	4	-6	-27	98
COc1cc(OC)cc(-c2cc3cc(F)ccc3cn2)c1	.	102	117	17	-3	.	100
COc1ccc(NC(=O)c2ccc3ccccc3c2)cc1	3	105	95	58*	-6	4	96
COc1ccc(C)cc1NC(=O)Nc1ccc(C(=O)N2CCCC2)cc1	-1	94	88	8	-8	-1	97
Cc1cccc(-c2noc(-c3ccoc3C)n2)c1	-5	99	103	5	4	1	98
COC(=O)c1ccc(NC(=O)c2ccc(OC(C)=O)c(OC)c2)cc1	1	91	108	0	5	-15	94
COc1nccnc1NS(=O)(=O)c1ccc(NC(=S)NC(=O)c2ccccc2)cc1	-5	.	.	-3	-12	-2	.
O=C(COc1ccc(-c2ccccc2)cc1)N1CCCC1	3	95	102	0	3	4	99
CCCCOC(=O)c1ccc(NC(=O)c2ccoc2C)cc1	5	112	107	1	7	8	110
COC(=O)c1sccc1NC(=O)/C=C/c1c(Cl)cccc1Cl	-2	114	107	10	-7	-7	108
Cc1ccc(OCC(=O)Nc2ccccc2F)cc1	-5	98	116	-2	-5	-8	91
Cc1ccnc(NC(=O)CCC2CCCCC2)c1	-11	102	108	5	-2	-6	106
Brc1ccc(-c2cn3ccccc3n2)cc1	0	104	109	30	-7	-10	98
Cc1cccc(N2C(=O)c3ccc(C(=O)Nc4cccc(C(=O)O)c4)cc3C2=O)c1	0	107	91	3	-7	5	106
CCOc1cccc(/C=C/c2ccc3cccc(O)c3n2)c1O	6	104	93	96*	1	6	103
O=C(Nc1nc2c(s1)CCCC2=O)c1cnccn1	12	104	101	8	19	-16	97
COc1ccccc1NC(=O)Nc1ccc(NC(=O)c2ccccc2O)cc1	-5	95	112	2	-1	4	92
Cc1c(-c2nn(C)c(=O)c3ccccc23)oc2ccc(F)cc2c1=O	-11	113	108	10	6	0	94
COC(=O)c1sccc1NC(=O)Nc1cccc(C)c1	4	100	97	43	0	-5	107
COc1ccc(Cl)cc1NC(=O)Nc1ccc(C(=O)N2CCCC2)cc1	-2	102	99	2	7	-8	113
O=C(Nc1ccc(NC(=O)c2ccco2)c(Cl)c1)c1ccccc1	-3	105	86	59*	-8	-16	97
O=c1[nH]c(Nc2ccccn2)cc2ccccc12	1	97	107	25	-3	11	107
COc1cc(OC)cc(-c2cc3cc4c(cc3cn2)OCO4)c1	.	104	104	-3	-8	.	95
Cc1nc(-c2ccc(C(=O)Nc3cccc(Br)c3)cc2)cs1	-1	98	103	-11	6	-8	104
Clc1ccc(-c2cn3ccccc3n2)cc1	-5	103	90	26	6	-10	105
COc1ccccc1OCc1ccc(C(=O)Nc2ccccc2)cc1	.	104	101	-2	7	-9	100
Cc1cc(/C=C2\SC(=S)N(C)C2=O)c(C)n1-c1ccc(O)cc1	0	164	148	0	-1	6	74
Cc1cc(NC(=O)c2ccc(Br)o2)ccc1NC(=O)c1ccco1	-4	238*[may fluoresce violet]	70[may fluoresce violet]	-2	4	-1	45*[may fluoresce violet]

Some of these compounds in order of SMILES length, low to high.
SMILES	EBNA-1 inh	MEP2-GFP yeast	LAP4 TOR yeast	AHR act	procasp7 counter	ZTA DNA inh	RPL19A-GFP yeast
Clc1ccc(-c2cn3ccccc3n2)cc1	-5	103	90	26	6	-10	105
Cc1ccnc(NC(=O)CCC2CCCCC2)c1	-11	102	108	5	-2	-6	106
Cc1ccc(OCC(=O)Nc2ccccc2F)cc1	-5	98	116	-2	-5	-8	91
O=c1[nH]c(Nc2ccccn2)cc2ccccc12	1	97	107	25	-3	11	107
O=C(Nc1nc2c(s1)CCCC2=O)c1cnccn1	12	104	101	8	19	-16	97
COC(=O)c1sccc1NC(=O)Nc1cccc(C)c1	4	100	97	43	0	-5	107
O=C(COc1ccc(-c2ccccc2)cc1)N1CCCC1	3	95	102	0	3	4	99
CCCCOC(=O)c1ccc(NC(=O)c2ccoc2C)cc1	5	112	107	1	7	8	110
COc1ccccc1OCc1ccc(C(=O)Nc2ccccc2)cc1	.	104	101	-2	7	-9	100
COc1cc(OC)cc(-c2cc3cc4c(cc3cn2)OCO4)c1	.	104	104	-3	-8	.	95
COC(=O)c1sccc1NC(=O)/C=C/c1c(Cl)cccc1Cl	-2	114	107	10	-7	-7	108
Cc1cc(NC(=O)c2ccc(Br)o2)ccc1NC(=O)c1ccco1	-4	238*[may fluoresce violet]	70[may fluoresce violet]	-2	4	-1	45*[may fluoresce violet]
COc1ccccc1NC(=O)Nc1ccc(NC(=O)c2ccccc2O)cc1	-5	95	112	2	-1	4	92
COc1ccc(Cl)cc1NC(=O)Nc1ccc(C(=O)N2CCCC2)cc1	-2	102	99	2	7	-8	113
COC(=O)c1ccc(NC(=O)c2ccc(OC(C)=O)c(OC)c2)cc1	1	91	108	0	5	-15	94
Cc1cc(/C=C2\SC(=S)N(C)C2=O)c(C)n1-c1ccc(O)cc1	0	164	148	0	-1	6	74
COc1nccnc1NS(=O)(=O)c1ccc(NC(=S)NC(=O)c2ccccc2)cc1	-5	.	.	-3	-12	-2	.
Cc1cccc(N2C(=O)c3ccc(C(=O)Nc4cccc(C(=O)O)c4)cc3C2=O)c1	0	107	91	3	-7	5	106

The main list resumes, repeating the 2 entries before the break.
SMILES	EBNA-1 inh	MEP2-GFP yeast	LAP4 TOR yeast	AHR act	procasp7 counter	ZTA DNA inh	RPL19A-GFP yeast
Cc1cc(/C=C2\SC(=S)N(C)C2=O)c(C)n1-c1ccc(O)cc1	0	164	148	0	-1	6	74
Cc1cc(NC(=O)c2ccc(Br)o2)ccc1NC(=O)c1ccco1	-4	238*[may fluoresce violet]	70[may fluoresce violet]	-2	4	-1	45*[may fluoresce violet]
Cc1ccc(-n2cc(C(=O)c3ccc(F)cc3)nn2)cc1Cl	-6	103	114	2	-10	8	100
CC(=O)c1sc(NC(=O)c2ccc(F)c(F)c2)nc1C	15	102	99	-5	8	-3	97
Cc1cc(N)n2nc(-c3ccc(C(C)(C)C)cc3)cc2n1	-1	91	78	12	-7	-2	94
Cc1ccc(OC(=O)c2cccc(S(=O)(=O)N(C)C)c2)c(-n2nc3ccccc3n2)c1	10	101	94	29	8	7	105

An excerpt (hit frequency here may not be typical).
